LANA-nucl inh: LANA-nucleosome interaction inhibition. FITC-LANA1-23 / chicken nucleosome fluorescence polarization; stronger effect = lower value. z-score (test concentration not listed). 51,000 compounds, 0.3% hits;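 active means both repeat wells score below -2 in polarization z-score versus plate sample wells, excluding overly bright wells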;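 further: 100 nL library stock added to about 30 µL; numbers are from one replicate; some results filed as inactive read as strong as hits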
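Assay system: FITC-LANA peptide and chicken nucleosomes; input: 240 nM purified chicken nucleosomes (480 nM peptide binding sites), final; also added: 50 nM FITC-LANA1-23 probe; medium: TEN-BT buffer, pH 7.5; doses: pin-transferred compound, 100 nL; times: 10–45 min, room temperature; technique: fluorescence polarization; replication: duplicates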
BasE inh: BasE siderophore biosynthesis inhibition. AID 485350. 84,000 compounds, 0.1% hits. purified BasE, fluorescence polarization binding displacement. inhibition, % (no concentration beside the values);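 active means both replicates above 25% with normal brightness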;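 further: 0% = negative plate control signal and 100% = positive plate control signal; stock transfer was 100 nL into about 30 µL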
* = called active by the depositor; . = not tested or not shown. A portion of the library; rates above refer to the full screens.

SMILES | LANA-nucl inh | BasE inh
CN(C)/C=C1\C(=O)c2ccc(Cl)cc2N(Cc2c(F)cccc2Cl)S1(=O)=O | . | -2.6
O=C1CC(Nc2ccc3c(c2)OCO3)C(=O)N1C1CCCCC1 (configuration not stated) | -1.3 | 1.7
NC(=O)CSc1ccc2ccccc2n1 | . | -0.8
COc1cc2c(cc1OC)CN(CC(=O)NC(=O)NC1CCCCC1)CC2 | . | -0.6
CCc1cc(C(=O)Cc2ccc3c(c2)OCCCO3)c(O)cc1OC | -0.51 | -1.5
c1ccc(-c2nc(C34CC5CC(CC(C5)C3)C4)cs2)cc1 | . | -0.5
COC(=O)C1=CC(C(=O)c2ccccc2)=NN(c2ccccc2)C1C(=O)OC (configuration not stated) | . | -7.6
CCCCn1c(SCc2cc(=O)n3ccsc3n2)nc2cc(S(N)(=O)=O)ccc21 | . | -4.0
CCc1ccc(NC(=O)C(C)OC(=O)C2CCC(=O)N2)cc1 (configuration not stated) | . | 2.4
CCC(C(=O)N1CC2(C)CC1CC(C)(C)C2)N1C(=O)c2ccccc2C1=O (configuration not stated) | -0.18 | 2.2

Rewritten in markdown: entries from further up.
| molecule | LANA-nucl inh | BasE inh |
| --- | --- | --- |
| CCCCn1c(SCc2cc(=O)n3ccsc3n2)nc2cc(S(N)(=O)=O)ccc21 | . | -4.0 |
| COC(=O)C1=CC(C(=O)c2ccccc2)=NN(c2ccccc2)C1C(=O)OC (configuration not stated) | . | -7.6 |
| COc1cc2c(cc1OC)CN(CC(=O)NC(=O)NC1CCCCC1)CC2 | . | -0.6 |

(continued)
SMILES | LANA-nucl inh | BasE inh
COc1ccc(/C=N/n2cnc3scc(-c4cccs4)c3c2=O)cc1OC | . | 3.9
C=CCN(CC=C)C(=O)CSc1ccc(OCC)cc1 | . | -1.3
O=C(Nc1ccc(S(=O)(=O)N2CCCC2)cc1)C1COc2ccccc2O1 (configuration not stated) | -0.2 | 2.9
O=C(c1cc(Br)cc2c1OCC2)N1CCCCC1 | . | -1.0
CC(C)c1ccc(N(CC(N)=O)S(C)(=O)=O)cc1 | 0.052 | 3.9
CC(NS(=O)(=O)c1ccc(Br)cc1)C(=O)NCc1ccco1 (configuration not stated) | 2.2 | -2.2
Cc1ccc2c(cnn2C(=O)CCC(=O)N2CCCCC2)c1 | 0.66 | -1.3
Cc1cc(C)cc(NC(=O)Oc2ccccc2N2CCCCC2)c1 | -1.6 | 0.6
COc1cc(NC(=O)Nc2cccc3ccccc23)ncn1 | -0.54 | 2.3
Cc1ccc(S(=O)(=O)NN2C(=O)S/C(=C/c3ccccc3)C2=S)cc1 | . | 2.9
O=c1ccc2cc(S(=O)(=O)n3ccnc3)ccc2o1 | -0.46 | -1.6
N#CCCN1C(=O)C2CC=CCC2C1=O (configuration not stated) | -0.99 | .
OCCCNCc1cc(Cl)c2c(c1)OCCCO2 | . | -53
Cc1onc(-c2ccccc2)c1CNC(=O)c1ccccc1C(=O)O | 0.86 | -0.3
COC(=O)C1=C(Nc2ccc(OC(=O)c3cccc(C(F)(F)F)c3)cc2)CSC1 | . | 2.4
Cc1onc(-c2c(F)cccc2Cl)c1C(=O)NC1C2CC3CC(C2)CC1C3 (configuration not stated) | -1.2 | 0.6
CCC(C)N(C(=O)Nc1cc(C)ccc1OC)C(C)CC (configuration not stated) | -0.43 | -2.1
Cc1ccc(C)c(C2C(C#N)=C(N)OC3=C2C(=O)CCC3)c1 (configuration not stated) | -0.3 | -1.9
CCN(CC)C(=O)CN1C(=O)COCC1=O | 0.02 | 1.5
c1coc(-c2nnc(-c3cc4c(s3)CCCC4)o2)c1 | . | -0.4
COc1ccc(C=Nc2ccc(C(N)=O)cc2)cc1 | . | -2.4
O=C(O)CCCOc1cccc2cccnc12 | -0.23 | 2.2
CCOc1cc2c(cc1OCC)C1CC(=O)N(c3cccc(C)c3)C(=O)N1CC2 (configuration not stated) | -0.15 | 2.7
CCOC(=O)Nc1ccc2c(c1)N(C(=O)CCN(C)C)c1ccccc1S2 | . | -1.6
Cc1cc2oc(C(=O)NC3CCS(=O)(=O)C3)cc(=O)c2cc1C (configuration not stated) | -0.58 | -0.4
O=C(Nc1ccc(Cl)cn1)c1ccc(COCC(F)(F)C(F)F)o1 | 1.7 | -1.4
CO/N=C(/C(=O)N[C@@H]1C(=O)N2C(C(=O)O)=C(COC(N)=O)CS[C@H]12)c1ccco1 | -0.42 | -1.0
CC1(NC(=O)CSC(C)(C)C)CCS(=O)(=O)C1 (configuration not stated) | . | 0.6
CCNC(=O)c1ccc2c(c1)S(=O)(=O)c1ccccc1C2=O | . | 2.6
CC(=O)N1N=C(C)CC1c1ccc(OCc2ccccc2)cc1 (configuration not stated) | . | 1.4
Cc1c(S(=O)(=O)c2ccc(Cl)cc2)csc1C(=O)NC1CCN(Cc2ccccc2)CC1 | . | 0.4
CCCC(=O)NCc1ccc(OC)cc1 | -0.34 | 1.1
Cc1cc(C)c(C#N)c(Oc2ccccc2Br)n1 | -0.8 | -3.3
Cc1[nH]c2ccccc2c1C(=O)Cn1c(=O)oc2ccccc21 | . | -1.8
CSc1nnc(SCC(N)=S)s1 | 0.79 | -3.1
COc1ccc(NC(=O)N2CCC(CN3CCCCC3)CC2)cc1 | 0.28 | -0.8
Cc1cc(NC(=O)CN2CC(C)CC(C)C2)nc2c1c(=O)oc1ccccc12 (configuration not stated) | 1.9 | -1.2
Cc1cccc(NS(=O)(=O)c2ccc3c(c2)CC(C)N3C(=O)C2CC2)c1 (configuration not stated) | -0.86 | 1.2
CCOC(=O)C1N=C2C(=[N+]([O-])C1N)COC(C)(C)/C2=N\O (configuration not stated) | -0.0035 | 4.8
Nc1cc(N)c2c(c1)Oc1ccccc1CC2 | 1.1 | -5.2
CC1CCN(CC(=O)Nc2ccc(Cl)cc2Cl)CC1 | 1 | -2.2
CCN(C(=O)c1ccc(S(=O)(=O)N(C)C)cc1)c1nc2c(C)cccc2s1 | . | 2.9
CCOC(=O)c1oc(C(=O)OCC)c(O)c1O | . | -0.4
Cc1ccc(-c2nc3ccc(Cl)cc3n2OCC(N)=O)cc1 | -0.29 | .
CCCNC(=O)CCc1nc(-c2ccccc2C)no1 | 1.7 | -1.8
O=C(OCCN1C(=O)c2ccccc2C1=O)C1CCN(S(=O)(=O)c2cccs2)CC1 | . | -0.9
O=c1[nH]c(=O)n(-c2ccc(Cl)cc2)c2c1CN(CCCc1ccccc1)CN2 | 1.5 | -4.8
CN(Cc1ccccc1)C1=CC2=CC(=C(C#N)C#N)CCC2CC1 (configuration not stated) | . | 13
COc1cnc(-c2ccccc2)nc1Oc1ccc(Cl)cc1C | -0.59 | .
N#CCCN(N)C1=NS(=O)(=O)c2ccccc21 | . | 3.1

5 of the compounds above, tab-delimited:
mol	LANA-nucl inh	BasE inh
Cc1ccc(-c2nc3ccc(Cl)cc3n2OCC(N)=O)cc1	-0.29	.
CCCNC(=O)CCc1nc(-c2ccccc2C)no1	1.7	-1.8
O=C(OCCN1C(=O)c2ccccc2C1=O)C1CCN(S(=O)(=O)c2cccs2)CC1	.	-0.9
O=c1[nH]c(=O)n(-c2ccc(Cl)cc2)c2c1CN(CCCc1ccccc1)CN2	1.5	-4.8
CN(Cc1ccccc1)C1=CC2=CC(=C(C#N)C#N)CCC2CC1 (configuration not stated)	.	13

Following part
SMILES | LANA-nucl inh | BasE inh
O=C(COC(=O)C12CC3CC(CC(O)(C3)C1)C2)c1ccc(Cl)cc1 | . | 0.5
O=C(CN(c1ccc(I)cc1)S(=O)(=O)c1ccccc1)Nc1cccnc1 | 0.76 | 1.4
c1ccc(C2CCC(N3CCNCC3)CC2)cc1 (configuration not stated) | -0.85 | -0.1
O=C(c1[nH]nc2c1CCc1ccccc1-2)N1CCCC1 | -0.51 | -0.6
NCCCNC(=O)c1cc2ccccc2[nH]1 | -0.081 | -4.4
O=C1CCCC(O)=C1C=Nc1ccc2c(c1)oc1ccccc12 | 0.15 | -2.5
NS(=O)(=O)c1ccc(CCNC(=O)CN2CCCCC2)cc1 | . | 1.6
CCCC(=O)Oc1ccc(C(=O)OC)cc1 | -1.4 | 3.1
COC(=O)CSC(=S)N1CCCC1 | . | 1.3
C=CCn1c(SCc2nnc(-c3ccccc3)o2)nnc1C(O)c1ccccc1 (configuration not stated) | 0.29 | 2.3
CCOC(=O)N1CCC(NCCNC(=O)c2ccccc2Cl)CC1 | -0.62 | -0.7
CCOC(=O)c1c(SC)n[nH]c1N | 0.72 | 1.2
CCOC(=O)Nc1cccc(C(=O)O)c1 | -0.15 | -0.5
CC(=O)NCc1ccc(-c2csc(CC(=O)Nc3ccc(C)cc3C)n2)o1 | . | 0.8
c1ccc(NCc2cccnc2)cc1 | -0.053 | -0.7
C=CCNc1ccc(C(=O)O)cc1 | 0.21 | -0.9
O=C1CSC(=NC2CC2)N1Cc1cccs1 | . | 2.0
Cc1cc(/C=C(/C#N)C(=O)NC(C)C)c(C)n1-c1ccc2ccccc2c1 | -1.2 | -0.1
CN=C1S/C(=C\c2ccc(Cl)cc2)C(=O)N1C | . | 1.9
O=C(CSc1nncn1-c1ccccc1)NC1CC1 | . | -0.7
CCCCNC(=O)Cn1nc(Cc2ccncc2)c2ccccc2c1=O | 0.16 | -1.6
Cc1ccsc1CNC(C)(C)CO | -0.21 | 6.0
CCOc1ccc(/C=N/n2nnnc2N)cc1OCC | -1.2 | -2.0
CC(C)c1ccccc1NC(=O)CSc1nnc(-c2cccs2)n1CC1CCCO1 (configuration not stated) | . | -5.2
O=C(Cc1ccc2c(c1)OCCO2)Nc1ccccc1N1CCOCC1 | . | 1.6
Oc1c(-c2ncc(-c3ccc(Cl)cc3)o2)sc2ncccc12 | . | 3.0
N#CCC(=O)N(Cc1ccccc1)C(=O)Nc1cccc(F)c1 | . | 0.2
CCCCCn1c(SCC(=O)N2CCC(C(=O)O)CC2)nc2ccccc21 | . | 2.0
COc1cc(C=Nc2ccccc2C(N)=O)ccc1O | 0.35 | 0.8
CN(C)Cc1c(O)ccc2c1O/C(=C\c1ccccc1)C2=O | -1.9 | 1.1
Cn1cc(NC(=O)N2CCCCC2)c2ccccc2c1=O | -0.28 | 1.0
COC(=O)/C(=C(/O)CSc1nnnn1C)c1nc2ccccc2[nH]1 | . | 4.3
COc1ccc(/C=N/N=C2\NC(=O)C(CC(=O)Nc3ccccc3)S2)cc1 (configuration not stated) | -0.89 | -0.4
CCOC(=O)C1CCN(CC(O)COc2ccc3ccccc3c2)CC1 (configuration not stated) | -0.39 | -1.3
NNC(=O)CSc1ccccc1F | . | 0.3
CCSc1nnc(NC(=O)c2ccc(=O)n(C)n2)s1 | . | -3.6
CCC1=C(C(=O)OC)C(c2ccc(Cl)cc2)n2ncnc2N1 (configuration not stated) | -0.22 | 2.6
Cc1ccc(SCCNC(=O)C(C)C)cc1 | -0.64 | 4.1
N/C(=N/S(=O)(=O)Cc1ccccc1)N1CCOCC1 | 0.42 | -0.1
Cc1ccc(N2C(=N)S/C(=C\c3ccc(-c4ccc(F)cc4)o3)C2=O)cc1C | -0.074 | -1.2

In another format: entries from further up
Order of values – LANA-nucl inh, BasE inh
CCOC(=O)C1CCN(CC(O)COc2ccc3ccccc3c2)CC1 (configuration not stated)
→ -0.39, -1.3
NNC(=O)CSc1ccccc1F
→ ., 0.3
CCSc1nnc(NC(=O)c2ccc(=O)n(C)n2)s1
→ ., -3.6
CCC1=C(C(=O)OC)C(c2ccc(Cl)cc2)n2ncnc2N1 (configuration not stated)
→ -0.22, 2.6
Cc1ccc(SCCNC(=O)C(C)C)cc1
→ -0.64, 4.1
N/C(=N/S(=O)(=O)Cc1ccccc1)N1CCOCC1
→ 0.42, -0.1

Next section.
SMILES | LANA-nucl inh | BasE inh
COc1ccc(C2CC(=O)c3cnc(NC(C)=O)nc3C2)cc1OC (configuration not stated) | . | -0.1
CCC(Sc1nc(=O)cc(N)n1-c1ccccc1)C(=O)Nc1ccc(Cl)cn1 (configuration not stated) | -0.74 | -3.8
O=C(CN1CCOCC1)NC12CC3CC(CC(C3)C1)C2 | 0.41 | -2.3
CCn1c(=NC(=O)c2cccc(N3C(=O)CCC3=O)c2)sc2c(C)ccc(OC)c21 | -0.64 | -1.5
CN1C(=O)/C(=C\N2CCCCC2)C(=O)NC1=S | -0.78 | 4.4
O=C(CSc1ccccc1C(=O)O)Nc1ccccc1OC(F)F | . | -6.3
NC(=O)C1CCN(C(=O)Cc2ccc(Cl)cc2)CC1 | 0.61 | -0.7
CC(C)(C)c1csc(-c2sccc2CS(=O)(=O)c2ccc(Cl)cc2)n1 | . | 1.2
CC(C)C(NC(=O)CSc1ccc(Cl)cc1)C(=O)O (configuration not stated) | . | -0.5
C/C(=N\NC(=O)C1CC1)c1ccc(OC(F)F)cc1OC(F)F | . | 0.2
Cc1ccc(-c2nn(-c3ccccc3)cc2/C=C/C(=O)OCC(=O)Nc2ccc3[nH]c(=O)[nH]c3c2)o1 | . | -1.5
Cc1c(C(=O)NCCCN2CCOCC2)oc2ccc3c(c12)C(=O)CC1(CCCCC1)O3 | 0.26 | -3.9
CC(C)(C)Cc1nc2ccccc2[nH]1 | . | -1.3
O=C(NCCCN1CCN(CCCNC(=O)c2ccc(F)cc2)CC1)c1ccc(F)cc1 | -0.26 | 1.8
COC(=O)c1cc(S(=O)(=O)NC2CCN(Cc3ccccc3)CC2)c[nH]1 | -0.54 | 1.3
C=CCN1C(=O)C(C(=O)O)C(=O)c2ccccc21 (configuration not stated) | -0.75 | 0.1
Cc1nn(CCC#N)c2c1P(=O)(c1ccccc1)/C(=C1\N(C)c3ccccc3C1(C)C)C=N2 (configuration not stated) | . | -0.4
O=S(=O)(CS(=O)(=O)c1ccc(Cl)cc1)c1ccc(Cl)cc1 | . | 3.3
O=c1c2ccccc2[nH]c(=S)n1Nc1ccccc1 | 0.38 | 0.4
CC(=Nc1cccc(N2CCCC2=O)c1)C1=C(O)CC2(CCCCC2)CC1=O | . | -2.4

Compound activity as filed in PubChem.
